Screening results: PubChem BioAssay, National Center for Advancing Translational Sciences (NCATS)
gsp ag: gsp mutant agonism. gsp mutant cells, cAMP HTRF, 30 min; control for the full effect not named in the record. Potency, µM (top dose mostly 76.9 µM), for inactives: top-dose activation (cAMP increase), actives largely listed as activators. hit rate 0.13% among 340,000. AID 624287; active = well fitted activation curve with a large enough effect; inconclusive = small, poorly fitted or top-dose-only effect, or another doubt; inactive = no such curve, though single readings can be large or run the other way; cell line not stated here;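 also: phosphodiesterase inhibitor Ro 20-1724 added with compounds to block cAMP breakdown; potency is read from the fitted curve at half-maximal effect; nearly all actives have a fitted effect of over 60% in size; about a fifth of the inactives were tested at one dose only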
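Cells stably selected in G418 were plated at 2000/well, grown 16-24 hr, then given compounds in DMSO with the PDE inhibitor […] (300 uM solution added) for 30 min at 37C; cAMP was read by HTRF.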
Menin MLL FP FL: menin-MLL binding inhibition, fluorescein peptide. AID 1766. FP activity change, % at 61.4 µM. Fluorescence polarization, fluorescein-MLL peptide displacement from menin. 290,000 tested, under 10 active; inconclusive = falling polarisation curve, or a change in total fluorescence; inactive = total fluorescence flat and polarisation flat or rising; no compound was filed as active; the % refers to the polarisation; negative = inhibition;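 also: % of control where 0% means no effect; inhibitors lower the polarisation; unlabelled MLL peptide was the positive control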
Sfp inh: blocks B. subtilis Sfp PPTase activity; Potency, µM, for the others: max response, negative = inhibition, actives largely listed as inhibitors; Biochemical Sfp PPTase activity, qHTS; Q9F4F7; hit rate 3.5% among 310,000; AID 1490; active = well fitted inhibition curve with a large enough effect; inconclusive = small, poorly fitted or top-dose-only effect, or another doubt; inactive = no such curve, though single readings can be large or run the other way;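 also: the enzyme is Sfp with the accession as filed and its product quenches rhodamine fluorescence; potency is read from the fitted curve at half-maximal effect; 0% = enzyme reaction without inhibitor and -100% = no enzyme wells; top concentration of the series not given in the record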
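Fluorescence-quenching assay with 15 nM Sfp, 5 uM rhodamine-CoA and 12.5 uM BHQ-2-labelled ybbR peptide in pH 7.6 Hepes/MgCl2 buffer. Enzyme was pre-incubated with compound for 15 min at room temperature. Rate was taken from the 30-min fluorescence change (525/598 nm).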
TRPV1 potentiator: human TRPV1 potentiation | Q8NER1 | TRPV1-expressing cells, Fluo-8 calcium influx, capsaicin EC20 potentiation; host cell line not named in the record; control for the full effect not named in the record | potentiation, % at 8.33 µM | hit rate 0.02% among 320,000 | AID 540277; active means potentiation above 80%; inconclusive means 30% to 80%; inactive means below 30%; also: 0% is about no effect
Target sequence (Q8NER1 whole entry, looked up): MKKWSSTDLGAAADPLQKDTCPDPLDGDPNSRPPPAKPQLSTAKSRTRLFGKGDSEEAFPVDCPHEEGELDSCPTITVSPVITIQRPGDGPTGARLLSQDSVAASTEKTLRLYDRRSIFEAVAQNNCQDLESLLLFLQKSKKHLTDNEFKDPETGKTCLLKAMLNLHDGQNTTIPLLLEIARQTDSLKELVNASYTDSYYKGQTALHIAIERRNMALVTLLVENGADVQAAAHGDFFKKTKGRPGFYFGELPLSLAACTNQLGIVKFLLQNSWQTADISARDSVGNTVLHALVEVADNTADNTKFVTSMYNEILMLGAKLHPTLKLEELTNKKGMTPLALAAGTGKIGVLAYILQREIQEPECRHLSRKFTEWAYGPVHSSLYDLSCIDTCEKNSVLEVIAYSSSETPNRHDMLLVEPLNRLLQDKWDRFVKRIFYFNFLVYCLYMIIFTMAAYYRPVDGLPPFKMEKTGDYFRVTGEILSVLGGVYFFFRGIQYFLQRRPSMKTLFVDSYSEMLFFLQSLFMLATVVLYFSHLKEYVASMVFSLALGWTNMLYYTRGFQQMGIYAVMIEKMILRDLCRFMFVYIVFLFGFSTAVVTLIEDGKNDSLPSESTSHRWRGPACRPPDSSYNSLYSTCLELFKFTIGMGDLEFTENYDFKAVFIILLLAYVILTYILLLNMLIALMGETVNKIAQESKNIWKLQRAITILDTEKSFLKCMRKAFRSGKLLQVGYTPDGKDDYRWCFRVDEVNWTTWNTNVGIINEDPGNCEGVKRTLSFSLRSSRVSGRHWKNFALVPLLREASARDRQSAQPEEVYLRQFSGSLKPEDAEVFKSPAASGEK
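Cells expressing TRPV1 were dye-loaded with Fluo-8 and read kinetically: 10 s baseline, 3 min after compound (agonist portion), then 2 min after EC20 capsaicin (allosteric enhancer portion). Calcium-bound dye fluorescence at 480/520 nm.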
ClpP mod: qHTS Assay for Activators of ClpP; ATP-dependent Clp protease proteolytic subunit (Bacillus subtilis (strain 168)), P80244; purified B. subtilis ClpP, FRET peptide cleavage, 20 min; Potency, µM (top dose mostly 57.5 µM), for inactives: at the highest dose activity change, negative = active; hit rate 1.9% among 340,000; active = well fitted falling curve with a large enough effect; inconclusive = small, poorly fitted or top-dose-only effect; inactive = no such curve, though single readings can be large or run the other way; also: potency is read from the fitted curve at half-maximal effect; the source files actives as falling curves though it sought activators and does not explain the sign; nearly all actives have a fitted effect of over 65% in size; many hits overshoot -100%
Target sequence (P80244 whole entry, looked up): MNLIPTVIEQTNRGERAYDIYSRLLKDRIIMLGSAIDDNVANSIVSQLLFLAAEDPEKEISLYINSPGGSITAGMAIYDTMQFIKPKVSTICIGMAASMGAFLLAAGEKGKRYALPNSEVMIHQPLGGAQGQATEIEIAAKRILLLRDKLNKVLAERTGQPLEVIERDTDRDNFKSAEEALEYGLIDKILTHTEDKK
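ClpP 10 microg/mL final, pH 8 Tris/KCl buffer with BSA, glycerol, Tween-20; compound pinned in; FRET-FV substrate; RT 20 min; Ex320/Em430; ΔFRET vs ADEP 5.8 microM, DMSO, no enzyme.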
CtBP-E1A blk: CtBP/E1A binding inhibition; AlphaScreen GST-E1A/His-CtBP binding, 1536-well; stronger effect = lower value; control for the full effect not named in the record; activity change, % (concentration not given with the values); hit rate 0.49% among 340,000; in the data active means activity change below about -65%; inconclusive means about -30% to -65%; inactive means above about -30%; also: % is scaled to controls: 0 for no effect and ±100 for the full control effect
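GST-E1A and His-tagged CtBP (125 nM each as 5X stock) were preincubated with pin-transferred compound for 2 h at 37 °C in the dark, then glutathione donor and nickel acceptor beads were added for 1 h before AlphaScreen reading.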
gsp antag: gsp mutant antagonism; gsp-mutant cells, cAMP HTRF, 30 min; control for the full effect not named in the record; Potency, µM (top dose mostly 76.9 µM), inactives show at the highest dose activity change, negative = inhibition, most hits filed as inhibitors; hit rate 0.4% among 340,000; AID 624288; active = falling curve of any shape with a large fitted effect; inconclusive = falling curve, mostly with a smaller effect; inactive = flat or rising curve; cell line not stated here;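 also: intracellular cAMP measured with PDE inhibitor Ro 20-1724 present during compound exposure; potency is read from the fitted curve at half-maximal effect; % is scaled to controls: 0 for no effect and ±100 for the full control effect; nearly all actives have a fitted effect of over 65% in size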
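HTRF cAMP measurement after 30 min RT detection following 30 min, 37C compound treatment alongside […] (added as 300 uM solution) in G418-selected cells seeded at 2000/well and grown 16–24 h.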
Starred values were filed as active, the others as inactive; u = inconclusive; x = not tested or not shown; & = joins results of further samples; [ ] = dose if it differs, or a comment.

#1 COc1ccccc1NC(=O)COc1ccc(C(=O)NC2CCCc3ccccc32)cc1OC (stereo not drawn)
#2 O=C(NCc1ccc(Cl)cc1Cl)c1ccc2nc[nH]c2c1
#3 CN(C)CC(=O)Nc1nc(-c2ccccc2)cs1
#4 N=C1C(c2nc3ccccc3[nH]2)=C(O)CN1C1CCCCC1
#5 O=C(CCCOc1ccc(Cl)cc1Cl)Nc1ccccc1C(=O)O
#6 O=C(N1CCOCC1)N1CCN(S(=O)(=O)c2ccc(Cl)cc2)CC1
#7 COC(=O)CN1C(=O)C(O)(CC(=O)c2ccc(C)cc2)c2ccccc21 (stereo not drawn)
#8 Cc1cccc(C)c1NC(=O)CN1CCN(C(=O)c2ccc(OCc3cn4ccccc4n3)cc2)CC1
#9 CC1(C)CC(=NOC(=O)c2ccccc2)CC(C)(C)N1
#10 CN1C(C(=O)c2ccccc2)=C(N)c2ccccc2S1(=O)=O
Screen / compound no.,1,2,3,4,5,6,7,8,9,10
gsp ag,-7%[15.4 µM],-3%[15.4 µM],0%,-8%[15.4 µM],12%,2%,12%,11%,-16%,-37%
Menin MLL FP FL,0.1,0.3,0.2,3.2,4.0,x,5.0,x,6.1,-4.0
Sfp inh,10%,-4%,-2%,11%,21%,13%,8%,x,15%,10%
TRPV1 potentiator,9,-4,4,6,29,-7,u,x,-1,2
ClpP mod,x,1.5%,-0.4%,-1.6%,x,0.5%,-3.5%,x,0.1%,0.7%
CtBP-E1A blk,-9,15,-5,0,6,x,7,4,5,4
gsp antag,x,7%,1%,-1%,-12%,-3%,-2%,-10%,14%,12%

10 successive entries already listed:
#1 COc1ccccc1NC(=O)COc1ccc(C(=O)NC2CCCc3ccccc32)cc1OC (stereo not drawn)
#2 O=C(NCc1ccc(Cl)cc1Cl)c1ccc2nc[nH]c2c1
#3 CN(C)CC(=O)Nc1nc(-c2ccccc2)cs1
#4 N=C1C(c2nc3ccccc3[nH]2)=C(O)CN1C1CCCCC1
#5 O=C(CCCOc1ccc(Cl)cc1Cl)Nc1ccccc1C(=O)O
#6 O=C(N1CCOCC1)N1CCN(S(=O)(=O)c2ccc(Cl)cc2)CC1
#7 COC(=O)CN1C(=O)C(O)(CC(=O)c2ccc(C)cc2)c2ccccc21 (stereo not drawn)
#8 Cc1cccc(C)c1NC(=O)CN1CCN(C(=O)c2ccc(OCc3cn4ccccc4n3)cc2)CC1
#9 CC1(C)CC(=NOC(=O)c2ccccc2)CC(C)(C)N1
#10 CN1C(C(=O)c2ccccc2)=C(N)c2ccccc2S1(=O)=O
Screen / compound no.,1,2,3,4,5,6,7,8,9,10
gsp ag,-7%[15.4 µM],-3%[15.4 µM],0%,-8%[15.4 µM],12%,2%,12%,11%,-16%,-37%
Menin MLL FP FL,0.1,0.3,0.2,3.2,4.0,x,5.0,x,6.1,-4.0
Sfp inh,10%,-4%,-2%,11%,21%,13%,8%,x,15%,10%
TRPV1 potentiator,9,-4,4,6,29,-7,u,x,-1,2
ClpP mod,x,1.5%,-0.4%,-1.6%,x,0.5%,-3.5%,x,0.1%,0.7%
CtBP-E1A blk,-9,15,-5,0,6,x,7,4,5,4
gsp antag,x,7%,1%,-1%,-12%,-3%,-2%,-10%,14%,12%

(next part)
#11 CCOc1ccc(NC(=O)COC(=O)CCC(=O)c2cccs2)cc1
#12 CCOc1cc(/C=C/c2ccc3cccc([N+](=O)[O-])c3n2)ccc1OCC(=O)N(C)C
#13 CCOc1ccc(-n2c(N)c(C(=O)NCc3ccco3)c3nc4ccccc4nc32)cc1
#14 O=C(CNc1ccc(Br)cc1)Nc1ccc(S(=O)(=O)N2CCCCC2)cc1
#15 Cc1nn(Cc2ccccc2Cl)c2sc(C(=O)OC3CCCC3=O)cc12 (stereo not drawn)
#16 Cc1cc(C)n2nc(C(=O)N3CCN(Cc4ccc5c(c4)OCO5)CC3)nc2n1
#17 CC1(C)CC(=O)c2cc(OCC(=O)N3CCCCCC3)ccc2O1
#18 COc1cccc(NC(=S)N(Cc2ccc(C)cc2)Cc2ccccn2)c1
#19 CC(=N\Nc1ccccc1)/C(=N/O)C(=O)Nc1ccccc1
#20 Oc1cccc(C(O)CNCc2ccc(-c3ccccc3)cc2)c1 (stereo not drawn)
Screen / compound no.,11,12,13,14,15,16,17,18,19,20
gsp ag,5%,1%[15.4 µM],-4%,-36%[inhibitor],-2%,1%,-6%,-8%[15.4 µM],-14%,-17%
Menin MLL FP FL,x,-12,0.7,x,7.2,-4.4,3.6,-0.4,4.9,0.8
Sfp inh,x,-11%,-13%,x,-13%,11%,-3%,9%,12%,-7%
TRPV1 potentiator,16,18,-3,x,-25,-4,5,-13,4,-10
ClpP mod,-3.0%,x,u,-1.0%,-16%,x,28µM*,28µM*,-0.7%,x
CtBP-E1A blk,-23,0,-19,-1,9,6,11,-9,5,-12
gsp antag,3%,-45%,13%,x,-7%,-2%,3%,-28%,6%,14%

#21 O=C(NCC1CCCCC1)C12CN(Cc3ccccc3)CC1C(c1cccc([N+](=O)[O-])c1)=NO2 (stereo not drawn)
#22 Cc1cc(C)cc(CC2CC(=O)N(c3ccc([N+](=O)[O-])cc3)C2=O)c1 (stereo not drawn)
#23 COc1ccc(C(C)=O)cc1COC(=O)c1c(C)noc1C
#24 CC(=O)Nc1cc2cc(NS(=O)(=O)c3ccc(C)cc3)ccc2oc1=O
#25 CCn1c(=O)c(=O)[nH]c2cc(C(=O)N3CCN(Cc4ccc5c(c4)OCO5)CC3)ccc21
#26 C/C(N)=C(/C#N)C(=O)CSc1nnc(Nc2cccc(C)c2)s1
#27 CC1CCN(C(=O)COC(=O)/C=C/c2ccc([N+](=O)[O-])cc2)CC1
#28 Cc1ccc(-n2ncc3c(SCc4cccc(C)c4)ncnc32)cc1
#29 CNC[C@@H]1Oc2c(NC(=O)Nc3ccccc3)cccc2C(=O)N([C@@H](C)CO)C[C@H]1C
#30 CC(C)N(Cc1ccccc1)C(=S)Nc1ccccc1F
Screen / compound no.,21,22,23,24,25,26,27,28,29,30
gsp ag,-20%,-21%,0%,30%,-15%,-15%[15.4 µM],-35%[inhibitor],3%,5%,u
Menin MLL FP FL,3.4,-3.5,1.2,3.3,-0.1,-1.5,x,0.1,x,3.6
Sfp inh,-2%,10%,1%,20%,4%,3%,x,3%,x,2%
TRPV1 potentiator,-16,u,1,-11,-8,5,x,-2,x,x
ClpP mod,1.1%,x,-0.2%,x,-21%,-8.9%&1.1%,x,28µM*,2.7%,x
CtBP-E1A blk,x,-13,6,0,-3,-7&-12,u,7,2,-11
gsp antag,-2%,-7%,1%,u,-4%,-11%&0%,-1%,10%,4%,6%

#31 O=C(CCN1C(=O)[C@@H]2Cc3ccccc3CN2C1=O)Nc1cccc(F)c1
#32 CS(=O)(=O)c1ccc(C(=O)NC2CCOC2=O)cc1 (stereo not drawn)
#33 CCN(CC)C(=O)c1ccc(-c2ccccc2)cc1
#34 O=C(CSc1ccc([N+](=O)[O-])cn1)Nc1nccs1
#35 COc1ccccc1C(=O)C1CCCN(C(=O)c2ccc(Cl)cc2)C1 (stereo not drawn)
#36 O=S(=O)(c1ccccc1)c1nc(NCc2cccnc2)sc1Cl
#37 Cc1ccc(-n2c(Cc3cccn3C)nnc2SCC(=O)Nc2cc(C)on2)cc1
#38 COc1ccc(OC)c(NC(=S)NCCCN2CCOCC2)c1
#39 O=C(OCC(=O)N1CCOCC1)c1ccccc1Br
#40 O=C(COc1cccc2cccnc12)N/N=C1\SCC(=O)N1Cc1ccccc1
Screen / compound no.,31,32,33,34,35,36,37,38,39,40
gsp ag,u,6%,u,1%,22%,-9%[15.4 µM],2%,-6%,11%,-28%
Menin MLL FP FL,x,4.7,3.7,x,x,1.2,0.0,-1.7,-2.5,-3.8
Sfp inh,7%,19%,-10%,0%,x,7%,9%,50µM*,17%,-24%
TRPV1 potentiator,2,17,-8,-6,x,-6,-3,-5,2,-1
ClpP mod,-0.7%,1.5%,-4.3%,0.3%,-5.7%,x,11%,1.0%,x,0.3%
CtBP-E1A blk,5,5,1,x,-5,-2,-8,1,5,-1
gsp antag,2%,2%,1%,-3%,x,-11%,-18%,20%,11%,-12%

#41 CN(C)c1cc[n+](CC(=O)Nc2ccc(OC(F)F)cc2)cc1
#42 Cc1ccc2oc(C(=O)N3CCC(O)(c4cccc(C(F)(F)F)c4)CC3)c(C)c2c1
#43 O=C(N/C(=C/c1cccnc1)C(=O)N1CCOCC1)c1ccco1
#44 CCC(OC(=O)C(C)N1C(=O)C(=O)c2ccccc21)C(=O)Nc1ccccc1OC (stereo not drawn)
#45 Cc1c(-n2c(-c3ccccc3)nc3ccccc3c2=O)c(=O)n(-c2ccccc2)n1C
#46 CC(=O)C(C(C)=O)c1cc(NS(=O)(=O)c2ccccc2)ccc1NS(=O)(=O)c1ccccc1
#47 Cc1ccc(NC(=O)c2ccccc2NC(=O)Cc2ccccc2)cc1
#48 Cc1ccc(Cn2nnc3c(=O)[nH]c(C4CCN(S(=O)(=O)c5ccccc5F)CC4)nc32)cc1
Screen / compound no.,41,42,43,44,45,46,47,48
gsp ag,-18%,-13%,-23%,1%[15.4 µM],7%,-12%,12%,-11%[15.4 µM]
Menin MLL FP FL,-13,2.5,2.6,3.1,1.8,1.3,1.7,12
Sfp inh,-3%,-4%,-5%,20%,21%,4%,5%,3%
TRPV1 potentiator,0,-1,-14,2,1,u,1,21
ClpP mod,-1.1%,x,-0.3%,x,-2.2%,x,-0.1%,x
CtBP-E1A blk,-3,8,1,0,3,-22,25,0
gsp antag,12%,-3%,-11%,16%,9%,-5%,u,12%
